Source: PubChem BioAssay
T cruzi inh – T. cruzi replication inhibition. AID 1885. inhibition, % (no concentration beside the values). T. cruzi beta-gal in NIH3T3, luminescence, 90 h. 300,000 compounds, 1.4% hits;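 active = mean inhibition across valid replicates above about 55%, limit read from the data; inconclusive = mean below that limit but half or more replicates reach it; inactive = mean below it, under half of replicates reach it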;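 also: signal also drops with host cell toxicity which is not excluded here; 0% = plate median of DMSO wells and 100% = zero luminescence signal; higher percent means less beta-gal luminescence so fewer parasites; stock transfer was 50 nL into about 50 µL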
LANA-H2A inh – blocks KSHV LANA binding to histone H2A/H2B; cell-free LANA-H2A/H2B peptide, fluorescence polarization; inhibition, % (concentration not given with the values); 320,000 compounds, 0.6% hits; AID 2629; in the data active = inhibition mostly above about 10%, no sharp cut-off; inactive = mostly below about 6.7%;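 also: stock transfer was 7.5 nL into about 10 µL; 0% = median of vehicle wells and 100% = median of positive control wells; one replicate is shown; the record names a cut of 25% in any replicate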
Bfl-1 A1 inh – inhibitors of the anti-apoptotic protein A1, read as caspase activation. MEF A1-2A-BIM cells, Caspase-Glo 3/7 luminescence, 3 h; percent of clofoctol response, vehicle zero. AID 2462. 330,000 compounds, 0.066% hits. caspase activation, % (concentration not given with the values);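 active = over half of replicate activation scores above 10%, or exactly half above 10 with the replicate mean above 10; inconclusive = replicate mean below 10 yet half the replicates above 10; inactive = over half of replicates below 10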;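 also: wells of about 30 µL received 50 nL stock; many hits fall short of the cut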
UCH37 inh – human UCH37 deubiquitinating enzyme inhibition; purified proteasome/UCH37, Ub-AMC cleavage fluorescence; inhibition, % (test concentration not listed); 330,000 compounds, 0.33% hits; AID 588478;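 active = mean of two replicates above 20%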;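 also: 0% = compound-free wells with enzyme and 100% = wells lacking proteasome; stock transfer was 100 nL into about 20 µL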
Target sequence (Q9Y5K5 whole entry, looked up): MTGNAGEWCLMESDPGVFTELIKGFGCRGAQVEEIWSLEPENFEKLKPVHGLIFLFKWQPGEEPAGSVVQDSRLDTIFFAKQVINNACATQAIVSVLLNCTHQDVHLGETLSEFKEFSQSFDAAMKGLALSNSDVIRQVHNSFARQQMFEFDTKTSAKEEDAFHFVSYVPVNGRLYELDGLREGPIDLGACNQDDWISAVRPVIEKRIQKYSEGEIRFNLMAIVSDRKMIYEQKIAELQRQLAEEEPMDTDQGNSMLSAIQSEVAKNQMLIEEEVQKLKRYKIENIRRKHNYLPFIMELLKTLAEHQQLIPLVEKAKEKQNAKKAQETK
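Reagent: Ub-AMC substrate; assay system: Proteasome-associated human UCH37 deubiquitinase; controls: no-proteasome and no-compound wells; read-out: % inhibition of Ub-AMC cleavage fluorescence; timing: 30 min preincubation with enzyme, 25 min cleavage at room temperature; signal: AMC fluorescence from Ub-AMC cleavage, excitation 355 nm, emission 460 nm; buffer or medium: Tris-HCl pH 7.4 plus ovalbumin, ATP-MgCl2, DTT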
RanGTP-Imp inh – disruptors of Ran-importin-beta complex formation – biochemical, FRET, CFP-Ran, YFP-importin-beta, homogeneous, primary screen | cell-free CFP-Ran/YFP-importin-beta FRET ratio | inhibition, % (no concentration beside the values) | 300,000 compounds, 1.1% hits | AID 2216;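 active = most replicates above 15%; inconclusive = exactly half above 15%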;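 also: 0% = DMSO wells and 100% = Ran loaded with GDP instead of GTP; wells of about 40 µL received 100 nL stock; the first replicate is given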
Beta apoptosis – beta cell apoptosis inhibition. INS-1E cytokine-induced death, ATP luminescence, 48 h; percent of positive-control rescue, neutral wells zero. protection from apoptosis, % (test concentration not listed). 300,000 compounds, 0.8% hits. AID 435005;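 active = all replicates at 75% or more, or half of them and the mean; inconclusive = half reach 75% but not the mean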;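 also: 0% = cytokine-treated negative control wells and 100% = positive control rescue; higher means more ATP so stronger rescue from cytokine killing; wells of about 40 µL received 100 nL stock; the first replicate is given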
Calb FLC – C. albicans growth modulation with fluconazole. C. albicans CaCi-2 (fluconazole-resistant clinical isolate) + fluconazole, Alamar Blue growth, 48 h. growth inhibition, % (test concentration not listed). 300,000 compounds, 0.57% hits. AID 1979;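 active = most replicates above 75%; inconclusive = exactly half above 75%; inactive = most below 75%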;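 also: all wells also contain fluconazole at 8 µg/ml as a sub-toxic cotreatment; 0% = median of DMSO wells and 100% = median of geldanamycin control wells; wells of about 8 µL received 7.5 nL stock; the first replicate is given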
B2AR ag – activates human beta-2 adrenergic receptor causing internalization; P07550; Am2.2-beta2AR cells, FAP receptor internalization, flow cytometry; reference of the scale not given here; response, % (concentration not given with the values); 340,000 compounds, 0.43% hits; AID 504454;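 active = response above a set limit, near 3 SD of response in nonfluorescent compounds, cut at about 42% in these data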;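 also: stock transfer was 100 nL into about 11 µL; a reference agonist was the positive control; negative values mostly stem from fluorescent compounds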
Target sequence (P07550 whole entry, looked up): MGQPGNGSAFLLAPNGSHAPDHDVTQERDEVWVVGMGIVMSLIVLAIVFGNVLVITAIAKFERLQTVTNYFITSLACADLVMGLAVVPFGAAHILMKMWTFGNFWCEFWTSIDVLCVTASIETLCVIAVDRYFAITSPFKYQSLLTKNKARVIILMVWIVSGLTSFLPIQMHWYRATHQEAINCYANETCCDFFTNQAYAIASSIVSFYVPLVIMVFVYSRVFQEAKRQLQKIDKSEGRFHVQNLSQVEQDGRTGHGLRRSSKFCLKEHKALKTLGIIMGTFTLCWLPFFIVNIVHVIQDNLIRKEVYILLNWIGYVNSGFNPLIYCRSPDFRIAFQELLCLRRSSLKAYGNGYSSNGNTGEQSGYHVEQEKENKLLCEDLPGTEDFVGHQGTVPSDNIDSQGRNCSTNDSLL
Starred values were filed as active, the others as inactive; i = inactive; ? = inconclusive; . = not tested or not shown.

Values in the order: T cruzi inh	LANA-H2A inh	Bfl-1 A1 inh	UCH37 inh	RanGTP-Imp inh	Beta apoptosis	Calb FLC	B2AR ag
CC(C)N1CCN(C(=O)C2CCC(=O)N(CCc3cccc(F)c3)C2)CC1 (stereo unspecified)
  -6	.	.	-0.7	-3.7	.	-8	2
COc1ccc(NC(=O)c2c(OC)cccc2OC)c(OC)c1
  59*	-1.8	0.6	2.2	6.4	15	45	3
Cc1c(F)cccc1NS(=O)(=O)c1ccccc1C#N
  -18	1.3	-0.5	-1.7	3.2	-5	24	10
CC(C)CC(NC(=O)C(Cc1ccc(OCc2ccccc2)cc1)NC(=O)OC(C)(C)C)C(N)=O (stereo unspecified)
  -11	-1.4	1.2	2.3	2.2	0	-3	3
CCOC(=O)C(C(=O)Nc1cccc(C)n1)C1CCCCC1 (stereo unspecified)
  5	1.0	0.0	0.0	-1.9	-1	-7	-2
CN(C)c1ccc(/C=N/NC(=O)c2ccc(Cl)cc2)cc1
  -11	-0.8	-0.4	.	9.5	-5	-16	0
Cc1cc(C)nc(N/C(=N/S(=O)(=O)Cc2ccccc2)Nc2ccccc2)n1
  -15	-1.7	1.2	.	?	0	18	-11
Cc1ccc(C2(C)NC(=O)N(CC(=O)Nc3cccnc3Cl)C2=O)cc1 (stereo unspecified)
  -8	3.0	0.9	-0.2	0.2	-5	27	10
Cc1noc(C)c1-c1nc(CS(=O)(=O)c2ccc(Cl)cc2)no1
  12	-7.2	-0.1	5.1	-2.6	1	-11	-5
O=C(COC(=O)[C@@H]1CCCN1S(=O)(=O)c1ccc(Cl)cc1)NC12CC3CC(CC(C3)C1)C2
  -5	0.4	0.1	2.5	1.6	-2	-7	-4
Cc1sc2nc(CN3CCCC3)nc(N3CCN(S(=O)(=O)c4cccc(F)c4)CC3)c2c1C
  .	-9.5	-0.8	-1.1	.	6	.	16
C[C@H](CO)N1C[C@H](C)[C@@H](CN(C)S(=O)(=O)c2ccccc2)Oc2c(NC(=O)Cc3ccccc3)cccc2C1=O
  .	-2.9	0.7	0.1	.	-3	.	-2
COc1ccc(C2CC(C(F)(F)F)n3nc(C(N)=O)c(Cl)c3N2)cc1OC (stereo unspecified)
  -12	-1.5	-0.4	-1.1	-0.2	-1	6	0
CC(C)(C)c1ccc(C(=O)CC(Sc2ccc(Cl)cc2)C(=O)O)cc1 (stereo unspecified)
  60*	-3.3	1.8	2.3	-2.2	-24	0	6
C[N+]1=C2CCCCCN2C(O)(c2ccccc2)C1 (stereo unspecified)
  -33	5.7	-0.7	1.9	-4.8	-6	18	1
CCOC(=O)CN(Cc1ccc(OC)c(OC)c1)S(=O)(=O)c1ccc(OC)cc1
  19	-9.5	0.2	2.4	0.9	-1	-6	3
Cc1cc(CN(C)C(=O)CC2C(=O)NCCN2Cc2c(F)cccc2Cl)n[nH]1 (stereo unspecified)
  1	0.8	0.2	-4.9	-4.7	-5	-20	3
COc1cccc(CC(=O)N2CCC(CCC(=O)Nc3cccc(OC)c3)CC2)c1
  ?	-0.8	0.3	1.8	-0.3	-5	-8	-3
C=C(C)C1CC=C(C)/C(=N/NC(=O)CCCNc2cccc(C)c2)C1 (stereo unspecified)
  -14	3.2	0.4	.	-4.3	-3	18	-3
COc1cc(OC)cc(-c2nc3ccccc3c(=O)n2NC(=O)c2cccnc2Cl)c1
  -1	2.4	-0.1	0.8	7.0	-1	40	-5
O=C(CSc1ccccc1F)NC(=O)c1ccc(Cl)cc1
  .	-2.0	-0.6	4.8	.	-6	.	0
Cc1nc2c(C(=O)Nc3ccc(N4CCCC(O)C4)cc3)snc2c(=O)[nH]1 (stereo unspecified)
  -9	1.6	-0.5	6.7	-2.9	2	0	-2
O=C(Nc1ccccc1)c1cccc(S(=O)(=O)Nc2ccccn2)c1
  -6	-2.4	-4.2	2.8	-1.3	-7	29	-5
c1ccc(CSc2nnc(Cc3ccccc3)o2)cc1
  17	4.1	-1.7	0.4	-0.4	-5	-16	1
COc1ccc(N2C3=[N+](CC2(C)O)c2ccccc2CC3)cc1 (stereo unspecified)
  3	-0.5	2.0	5.4	-4.9	-2	-5	8
CCC(NC(=O)CCC(=O)N1CCN(S(=O)(=O)c2ccc(C)cc2)CC1)c1ccc(C)cc1 (stereo unspecified)
  .	1.5	-0.4	2.6	.	0	.	5
O=C1[C@H]2[C@@H](c3ccc(F)cc3)N3C(=O)N(c4ccccc4)C(=O)[C@@]3(Cc3ccccc3)[C@H]2C(=O)N1C1CCCCC1
  0	7.6	1.1	0.3	1.2	2	1	-1
CC1(C)CC(=O)C=C(Nc2ccccn2)C1
  -8	-0.5	-0.2	5.6	10	2	-31	-11
Cc1ccc(Cn2nnc3c(=O)n(CC(=O)c4ccccc4)cnc32)cc1
  3	4.3	0.7	0.7	-1.2	5	0	-3
COC(=O)C(Cc1ccc(OC(=O)c2ccccc2C)cc1)N1Cc2ccccc2C1=O (stereo unspecified)
  0	-3.1	0.4	4.4	4.1	-6	14	-8
CCN1CCn2c3c(c4cccc(C)c42)CCCC31 (stereo unspecified)
  -3	-2.2	1.2	-1.2	-3.4	-4	-3	3
Cc1ccc(C(=O)N2CCC(C(=O)c3ccc(Cl)cc3)CC2)cc1
  6	-2.6	0.9	3.8	3.5	4	-10	4
Cc1cccc(/C=N/NC(=O)c2ccccc2OCc2cccc(Br)c2)n1
  24	3.6	0.1	.	7.2	18	5	15
CCOC(=O)C(=O)N1CCN(c2ccccc2OC)CC1
  -1	-4.9	0.6	.	2.6	0	1	12
NS(=O)(=O)c1ccc(CNC(=O)CNC(=O)Cc2ccccc2)cc1
  -5	2.2	-0.5	-1.4	-0.7	0	-2	10
COc1ccc(-c2ccc(C#N)c(SCC(=O)NC3CC3)n2)cc1OC
  -7	0.5	0.0	i	4.3	-3	15	-1
N#Cc1ccc(OCC(=O)OCC(=O)c2ccccc2)cc1
  .	-1.4	-0.1	4.3	.	-2	.	-1
COc1ccc(CCN2C(=O)CC(N3CCOCC3)C2=O)cc1OC (stereo unspecified)
  .	3.3	-0.7	1.7	.	0	-7	-4
C=CC[C@@H](Cc1ccc(F)cc1)C(=O)OC[C@@H]1CCCN1C(=O)[C@H](CC=C)CC(=O)NCCO
  .	-0.1	-0.4	2.0	.	-3	.	-8
COC(=O)c1cc(NC(=O)COC(=O)C2CCC2)cc(C(=O)OC)c1
  -7	12	-0.6	0.3	.	-1	1	5
CN(C)c1ccc(CNc2ncc(Br)cc2Br)cc1
  11	-8.5	-0.6	0.9	0.6	-4	-64	0
CCCCn1c(N)c(N(CC)C(=O)C2CCN(C(=O)c3ccccc3C)CC2)c(=O)[nH]c1=O
  .	8.6	1.3	0.3	.	-1	.	-3
O=C(CCC1CCCC1)N1CCN(C(=O)COc2ccccc2)CC1
  3	-2.2	-0.4	1.0	-3.7	2	3	2
NC(=O)c1ccc(NC(=O)COC(=O)CC(NC(=O)c2ccccc2Cl)c2ccccc2)cc1 (stereo unspecified)
  -13	-3.5	-0.4	2.1	-2.9	-9	-4	-9
O=C(CSc1nc2ccccc2n1Cc1ccccc1Cl)N/N=C/c1ccccc1C(=O)O
  -1	-1.9	0.5	.	2.8	7	8	11
CCOC(=O)c1cc(NC(=O)Cc2ccc(S(=O)(=O)N3CCOCC3)s2)cc(C(=O)OCC)c1
  2	5.7	-0.5	1.1	?	.	7	37
C=CCOCCn1[nH]c2ccccc2c1=O
  .	0.6	0.8	-4.8	.	-13	.	2
Cc1ccc(NC(=O)c2cnn(-c3ccccc3)c2C)c(C)c1
  9	11	-0.9	3.2	3.2	6	-11	5
COc1ccc(CCNC(=O)CSc2nnc(-c3ccc(F)cc3)o2)cc1OC
  -5	7.1	0.2	3.6	-2.5	-3	-7	9
CC1(C)Cc2ccccc2-c2nnc(SCC(=O)Nc3nc4ccccc4s3)n21
  24	2.6	0.1	-1.1	-1.4	-2	8	.
Oc1c(Br)cc(Br)cc1C=Nc1ccc2c(c1)OCCO2
  24	-12	-0.3	0.0	-15	-5	-27	6
COc1cccc(/C=C(\C#N)c2nc3ccc(C)cc3[nH]2)c1OCC(=O)O
  5	2.1	1.1	-1.9	10	.	29	-9
Cc1nc2sc3c(c2c(=O)[nH]1)CCCCC3
  1	-0.7	0.8	3.2	4.9	0	3	11
COC(=O)CSc1nc(N)c(C#N)c(C(C)C)c1C#N
  -6	0.8	-0.6	4.1	-4.6	.	-10	33
COc1ccc(C)cc1S(=O)(=O)N1c2ccccc2CC1C (stereo unspecified)
  14	13	0.8	2.6	-2.3	-4	20	7
COc1ccc(C)cc1S(=O)(=O)Nc1cc2c3c(c1)CC(=O)N3CCC2
  -3	6.9	-0.1	-0.9	2.4	.	-4	-4
COc1ccccc1CN(C)C(=O)c1cccc(S(=O)(=O)N2CCCC2)c1
  .	4.1	-0.5	1.9	.	-4	.	9
c1ccc(-c2ccc3ccccc3n2)cc1
  6	-1.2	0.1	3.0	-0.4	2	-5	-10
Cc1cc(S(=O)(=O)NCCc2ccncc2)cc(C)c1F
  -21	0.5	0.0	1.7	10	1	-4	-8
NC(=O)SCC(=O)Nc1ccc(Cl)cc1
  0	-0.4	0.3	1.3	2.0	-28	4	6

The listing continues:
Values in the order: T cruzi inh	LANA-H2A inh	Bfl-1 A1 inh	UCH37 inh	RanGTP-Imp inh	Beta apoptosis	Calb FLC	B2AR ag
COc1ccc(OCC(=O)N/N=C(\C)c2ccc(-n3ccnc3)cc2)cc1
  7	2.2	-0.4	.	3.1	-3	2	-2
NNC(=O)C1CCN(S(=O)(=O)c2ccc(Cl)cc2)CC1
  11	-3.0	0.0	4.9	-4.6	.	7	6
CC(C)(C)c1ccc(C(=O)NCC(=O)O)cc1
  -12	6.3	-0.1	2.9	0.9	1	20	-3
C=C(C)Cn1c(N2CC(C)CC(C)C2)nc2c1c(=O)[nH]c(=O)n2C (stereo unspecified)
  -6	0.9	-0.1	4.4	-1.1	-1	4	0
S=c1[nH]nc(-c2ccc(Cl)cc2Cl)n1-c1ccc(Cl)cc1
  -3	45*	0.6	2.7	2.3	4	18	14
COc1ccc(-c2nnn(CCc3nn[nH]n3)n2)cc1OC
  0	4.9	-0.6	3.7	0.8	-5	4	-3
CSc1ncccc1C(=O)OCC(=O)NC(C)C
  -18	2.6	0.1	1.5	7.6	-4	-12	2
COCCN(C(=O)c1snc(C(N)=O)c1N)C(C(=O)NC1CCCCC1)c1cc(OC)c(OC)c(OC)c1 (stereo unspecified)
  -7	-1.0	0.1	-32	-1.8	-5	-1	-4
O=C1CCc2cc(S(=O)(=O)NC(Cc3ccccc3)C(=O)NC3CCCC3)ccc2N1 (stereo unspecified)
  8	2.2	0.0	3.9	-1.5	-5	-6	2
COc1ccc(OC)c(NC(=O)C2CCCN(S(=O)(=O)c3ccc(-n4cnnn4)cc3)C2)c1 (stereo unspecified)
  -12	-0.4	-0.3	0.3	7.1	1	12	2
